Bioassay records: PubChem BioAssay, several laboratories
RecA splice inh: blocks M. tuberculosis RecA intein splicing; 0.75% of 290,000 active; cell-free RecA intein splicing, fluorescence; inhibition, %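 (about 9 µM by stock and volumes)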; P9WHJ3; in the data active = inhibition above about 30%; inconclusive = no clear call, values can overlap the other calls;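 also: 0% = vehicle wells and 100% = reference inhibitor control wells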
Target sequence (P9WHJ3 whole entry, looked up, canonical isoform): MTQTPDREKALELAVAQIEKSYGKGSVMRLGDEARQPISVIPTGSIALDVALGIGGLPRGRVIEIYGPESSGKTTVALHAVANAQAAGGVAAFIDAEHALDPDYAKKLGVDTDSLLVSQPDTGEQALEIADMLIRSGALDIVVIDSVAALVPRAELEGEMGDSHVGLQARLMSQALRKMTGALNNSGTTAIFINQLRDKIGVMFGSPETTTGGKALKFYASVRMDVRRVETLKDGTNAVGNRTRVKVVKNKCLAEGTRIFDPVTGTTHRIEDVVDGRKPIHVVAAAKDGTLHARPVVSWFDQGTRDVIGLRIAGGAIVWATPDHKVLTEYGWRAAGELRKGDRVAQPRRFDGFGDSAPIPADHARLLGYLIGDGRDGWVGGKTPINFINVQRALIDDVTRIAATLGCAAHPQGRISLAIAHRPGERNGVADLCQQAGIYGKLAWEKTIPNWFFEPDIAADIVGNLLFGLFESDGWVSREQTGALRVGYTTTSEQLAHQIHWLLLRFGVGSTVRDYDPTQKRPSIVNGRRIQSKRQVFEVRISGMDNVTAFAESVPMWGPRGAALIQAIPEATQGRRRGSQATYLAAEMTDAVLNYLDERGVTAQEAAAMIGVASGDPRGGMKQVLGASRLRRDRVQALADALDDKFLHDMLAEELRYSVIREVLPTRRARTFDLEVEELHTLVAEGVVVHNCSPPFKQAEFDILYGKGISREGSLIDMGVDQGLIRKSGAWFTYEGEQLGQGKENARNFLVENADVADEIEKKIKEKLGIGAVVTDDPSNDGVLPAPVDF
Mtb H37Rv: M. tuberculosis H37Rv growth inhibitors, H37Rv strain (AID 1626); M. tuberculosis H37Rv growth inhibition; higher % means a stronger effect; inhibition, % at 10 µM, or IC50 in µM where a hit was titrated; 0.95% of 220,000 active;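 active = confirmed in a dose series; inconclusive = inhibition above 80% but not taken into the dose series; inactive = below 80% or under 30% at every dose of the series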;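 also: bacteria incubated seven days before Alamar blue readout; 0% = bacteria only wells and 100% = bacteria with antibiotic wells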
YopH PTP inh: YopH (Yersinia) phosphatase inhibition. fluorescence Ex485/Em525. inhibition, %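 (about 10 µM by stock and volumes)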. 0.16% of 140,000 active;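 active = inhibition of 50% or more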;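 also: controls were vehicle for no effect and minimum signal wells for full effect; inactives centre near -20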
Mtb bLac sens: beta-lactam sensitization of Mtb H37Rv; 0.27% of 330,000 active; inhibition, % at 25 µM; AID 434955; M. tuberculosis H37Rv growth with meropenem, percent inhibition; hits of this screen are not shown here;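 active = about 74% or more and at least 40 points above the plate without the antibiotic, then above 30% in a dose series; inconclusive = first-round hits that could not be retested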;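 also: growth measured after seven days incubation then overnight dye step; 0% = bacteria only wells and 100% = bacteria with antibiotic; twin plates without the antibiotic show which effects depend on it; some results filed as inactive read as strong as hits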
Arbovirus inh: blocks arbovirus infection; arbovirus infection cell-based antiviral screen; 0.37% of 200,000 active; AID 1251; inhibition, % at 10 µM;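 active = inhibition from about 30%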;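 also: bluetongue infection of BSR cells; cell survival read as ATP light after 72 h; 0% = infected wells without compound and 100% = uninfected wells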
Arbovirus inh repeat: recorded beside Arbovirus inh, whose call it bears; inhibition, %; measured here: 10K subset replicate screen; many hits read low in the repeat;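 first of two repeat runs on a subset; 0% = infected and 100% = uninfected wells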
* marks the source's active call; other numbers are inactive results; ? = inconclusive; . = no result given.

SMILES	RecA splice inh	Mtb H37Rv	YopH PTP inh	Mtb bLac sens	Arbovirus inh	others
CC(C)N1CCCC(CNC(=O)CCc2nnc(CCCCc3ccccc3)o2)C1 (stereo not drawn)	-0.9	-2%	.	5	8
O=C(NCCCCc1ccccc1)C1CC(c2ccc([N+](=O)[O-])cc2)=NO1 (stereo not drawn)	-0.7	14%	-6	-10	-3
COc1ccc(NC(=O)CSc2nc3c(c(=O)n2C)SCC3)cc1OC	0.7	.	.	4	.
C/C(=N\NC(=O)CNc1cccc2ccccc12)c1ccc(Br)s1	2.4	-3%	-13	-8	3
Cc1cccc2nc(-c3cccc(NC(=O)c4ccc(Cl)cc4)c3)cn12	1.3	.	-32	3	-10
O=C(NCCCN1CCOCC1)c1ccc(CS(=O)(=O)c2c(Cl)cccc2Cl)o1	-0.6	-4%	-21	2	0	Arbovirus inh repeat=3
Cc1ccnc2ccc(P(=O)(c3ccccc3)c3ccccc3)cc12	.	5%	.	.	6
Cc1ccc(OCC(=O)Nc2ccc3c4c(cccc24)CC3)c(C)c1	1.4	1%	-20	.	-3
CSc1ccccc1NC(=O)COc1ccc(Cl)cc1C	4.2	5%	-55	?	0
CC(=O)c1c(C)[nH]c2ccccc2c1=O	-0.3	1%	-157	-1	5
O=C(NCc1ccc(Cl)c(Cl)c1)c1cccnc1	1.3	-2%	-29	2	-19	Arbovirus inh repeat=-7
Clc1ccccc1CN1CCN(CCCc2ccccc2)CC1	0.2	6%	.	.	16
CCCCCCCCCCC[N+](C)(C)CC/C=C1/c2ccccc2Sc2ccc(Cl)cc21	63*	.	.	100	.
Cc1cc(C)n(-c2nc(N(C)C)nc(N(C)C)n2)n1	3.3	-2%	28	6	5
CC(C)(C)OC(=O)N/N=C/c1cccc([N+](=O)[O-])c1	.	-3%	.	2	-15
Cc1ccccc1-n1c(/C=C/c2ccccn2)nc2ccccc2c1=O	-5.7	.	.	5	.
CCOC(=O)c1c(NC(=O)CSc2nnc3c(n2)[nH]c2ccc(F)cc23)sc(C(C)=O)c1C	.	-4%	-28	6	-1
COc1cc2c(cc1OC)C(c1cccc(Cl)c1Cl)CC(=O)N2 (stereo not drawn)	1.8	.	.	-1	.
Cn1c(CN2CCOCC2)nc2cc(NC(=O)COc3ccccc3)ccc21	-0.2	-13%	.	-1	3
CC(=O)n1cc([C@@H]2C=C(C(=O)N3CCOCC3)O[C@H](OCCCCO)C2)c2ccccc21	0.6	1%	.	-8	0
O=C(O)CCC(=O)Nc1ccc(F)cc1	-1.7	2%	-23	-1	3
Cc1ccccc1N(CC(=O)NCCc1ccccc1)C(=O)CCC(=O)Nc1ccccn1	-0.2	.	.	-3	.
Cc1ccc(NC(=O)CN2C(=O)NC(Cc3c[nH]c4ccccc34)C2=O)cc1S(=O)(=O)N1CCCCC1 (stereo not drawn)	4.2	3%	-27	2	-10
Cc1ccc2nc(CSc3nnc(-c4ccco4)n3-c3ccccc3)cc(=O)n2c1	1.7	-1%	-25	-2	.
COc1cc2[nH]c(=S)n(Cc3ccc(C)cc3)c(=O)c2cc1OC	0.2	6%	.	10	-13
COc1ccc(-c2nnc(SCc3nc4ccccc4s3)n2C(C)C)cc1	3.6	5%	-14	-3	20
CCN(CC)S(=O)(=O)c1ccc2[nH]c(=O)cc(C(=O)NCC3CCCO3)c2c1 (stereo not drawn)	-2.2	.	.	-2	.
CCOC(=O)N1CCN(C(=O)C2CCN(S(=O)(=O)c3cc(C)ccc3OC)CC2)CC1	-1.5	2%	.	2	2
CCN(CC)CCCNc1nc(C)cc(COC)c1C#N	-2.8	1%	.	-9	5
OC(CN1CCN(c2ccc(F)cc2)CC1)c1ccc(Cl)cc1 (stereo not drawn)	-1.1	.	.	7	.
COc1ccc(CC(=O)NCCN2CCOCC2)cc1	-1.3	.	.	-1	.
O=C(CN(C(=O)c1ccco1)c1cccc(F)c1)NCc1ccc(F)cc1	3.2	-5%	-36	0	-6
O=C(CN1CCN(Cc2ccccc2)CC1)N1CCCCCC1	-0.7	-7%	.	1	0
CC(C)CC(=O)Nc1ccc(C(=O)CN2C(=O)NC3(CCOc4ccccc43)C2=O)cc1 (stereo not drawn)	-16	.	.	-8	.
CCOCCCNC(=O)CCc1nnc2n(CCC(C)C)c(=O)c3ccccc3n12	-1.3	.	.	0	.
COc1ccc(CN(C)C(=O)c2cc(S(=O)(=O)N3CCCCCC3)ccc2OC)cc1OC	-3.4	.	.	-1	.
N#Cc1ccccc1OCC(=O)NC(=O)NCc1ccccc1	-0.4	15%	.	7	14
COc1ccc(C2=CC3=C(Br)C(=O)C(C)(O)C(=O)C3=CO2)cc1 (stereo not drawn)	-6.2	2%	.	3	.
S=c1nccc(-c2ccc3c(c2)CCO3)[nH]1	1.9	-1%	.	81	.
CCOc1cccc2cc(C(=O)NCc3ccc(C)cc3)c(=N)oc12	-1.7	.	.	-6	.
COc1nccnc1NS(=O)(=O)c1ccc(NC(=O)c2ccccc2Br)cc1	0.7	.	.	8	.
O=C(CCl)Nc1cc2[nH]c(=O)[nH]c2cc1Br	6.1	3%	.	91	7
COc1ccc(C(=O)OC2CC3CCC(C2)[N+]3(C)[O-])cc1OC (stereo not drawn)	-2.9	.	.	0	.
COCc1cc(C)nc(OCC(=O)N/N=C/c2ccccc2)c1C#N	-0.7	-16%	.	2	-1
CCOC(=O)c1ccc(NC(=O)Cn2cc3c(n2)CCC(C)C3)cc1 (stereo not drawn)	-1.1	-14%	-12	?	6	Arbovirus inh repeat=0
Cc1cc(-c2cccnc2)c(C#N)c(SCC#N)n1	-0.9	-4%	-6	-2	9
Cc1ccc(NC(=O)c2ccco2)cc1C	-1.2	-3%	-13	2	-1	Arbovirus inh repeat=3
O=C(Nc1nc2ccccc2n1Cc1ccc(Cl)cc1)c1ccco1	-1.1	16%	-24	20	-9
CCOc1ccc(NC(=O)CSc2nc3[nH]ncc3c(=O)[nH]2)cc1	-0.5	.	.	21	.
COc1ccc(NC(=O)CN(C)C(=O)c2cccc(S(=O)(=O)N3CCCc4ccccc43)c2)cc1	0.4	.	.	-14	.
Cc1cc(OCC(=O)NC(Cc2c[nH]c3ccc(O)cc23)C(=O)O)c2c(C)c(C)c(=O)oc2c1 (stereo not drawn)	1.7	.	.	-5	.
O=S(=O)(c1cccc(-c2csc(-c3cccnc3)n2)c1)N1CCOCC1	0.6	6%	.	-7	.
CN1CCN(S(=O)(=O)c2cccc(C(=O)NCc3ccccc3Cl)c2)CC1	-1.7	-1%	.	-3	-7
FC(F)(F)c1nc2ccccc2n1CCNc1nc(CN2CCCCC2)cs1	-0.1	.	.	-6	.
CCCOc1ccccc1N/C(=N/c1nc(C)cc(C)n1)NC(=O)Nc1ccc(Cl)cc1	-3.9	5%	-29	8	5
CCOC(=O)c1snc(-c2ccc(F)cc2)c1N	0.3	6%	6	-1	-5
NS(=O)(=O)c1ccc(NC(=S)NC(=O)/C=C/c2cccs2)cc1	-3.9	-1%	.	4	-9
COc1ccc(CCNC(C(=O)Nc2cc(C)cc(C)c2)c2ccccc2)cc1 (stereo not drawn)	21	.	.	13	.
COc1ccc(/C=C2/SC(=O)N(CCNC(=O)CC(NC(C)=O)c3ccccc3)C2=O)cc1 (stereo not drawn)	0.1	-2%	.	6	.
O=C1CN(C(=O)c2ccc(Cl)nc2)c2ccccc2N1	-2.9	1%	.	-6	1
New compounds follow:
SMILES	RecA splice inh	Mtb H37Rv	YopH PTP inh	Mtb bLac sens	Arbovirus inh	others
O=c1[nH]c(=S)n(CCC2=CCCCC2)c(O)c1C=NC1CCN(Cc2ccccc2)CC1	1.3	-4%	-37	4	0
O=C(CCN1C(=O)/C(=C/c2ccc(Cl)cc2)SC1=S)Nc1cccnc1	-0.6	.	.	-1	.
O=C(Nc1ccccc1)c1ccccc1OS(=O)(=O)c1ccccc1	-0.4	.	.	4	.
CC(C)CCn1c(=O)c2c(nc3n2CCCN3Cc2ccccc2)n(C)c1=O	11	.	.	2	.
Cc1nn(C)c(-c2n[nH]c(=S)n2-c2ccccc2)c1Cl	-0.8	17%	-33	-9	10
CN(O)/C=N/C(=S)Nc1ccc(Cl)cc1Cl	-1.7	1%	.	5	-4
Cc1cc(C)n(-c2nnc(C)n2/N=C/c2ccccc2O)n1	-5.9	.	2	-2	9
CN1CCCC(OC(=O)c2ccc3c(c2)OCCO3)C1 (stereo not drawn)	0.5	-6%	-21	.	10
CC(C)CN(C(=O)c1ccc2c(c1)OCCO2)c1c(N)n(Cc2ccccc2)c(=O)[nH]c1=O	0.4	.	.	-9	.
CCC(O)C1CCN(Cc2cn(-c3ccc(OC)cc3)nc2-c2cccc(F)c2)CC1 (stereo not drawn)	-6.7	13%	.	2	-23
COc1cc(NS(=O)(=O)c2ccc(NC(=O)c3ccc([N+](=O)[O-])cc3)cc2)ncn1	0.0	.	.	3	.
COc1ccc(OC2CCN(S(=O)(=O)c3ccccc3)CC2)cc1	0.5	.	.	-1	.
Cc1cc2cc(C)c3nnc(SCC(=O)Nc4ccc(S(=O)(=O)N5CCCCC5C)cc4)n3c2cc1C (stereo not drawn)	0.0	8%	-3	49	-8
CCCCn1c(-c2csc(CCC)c2)n[nH]c1=S	1.9	-3%	.	-1	-1
Cc1ccc(S(=O)(=O)N2CCC(C(=O)Nc3ccc(S(=O)(=O)N4CCCC4)cc3)CC2)cc1	3.3	.	.	-10	.
O=C(NCCn1cc(SCc2ccccc2)c2ccccc21)c1ccccc1F	16	15%	-38	4	-24
CCc1c(C)nc2cc(-c3ccc(OC)c(OC)c3)nn2c1N1CCC(C)CC1	-3.5	29%	-4	14	5
O=C(OCc1cccs1)c1ccccc1NS(=O)(=O)c1ccc2c(c1)OCCO2	5.1	-6%	-16	5	4
Cc1cnn2c(C3CC3)ccnc12	-1.3	-2%	.	-4	21
O=C(O)c1cc([N+](=O)[O-])cc2c1nnn2O	1.4	-2%	.	3	6
COC(=O)c1ccc(NC(=O)C23CCC(C)(C(=O)O2)C3(C)C)cc1 (stereo not drawn)	-1.6	-10%	-9	2	1
Cc1nc(C(F)(F)F)c(C(=O)NC(=O)Nc2ccc(OC(F)(F)F)cc2)s1	5.6	58%	-9	11	11
CC(C)CN(C)Cc1c(C(=O)N2CCc3ccccc3C2)nc2ccc(Cl)cn12	1.5	10%	.	1	-11
C=CCNC(=S)Nc1ccc(OC)c(S(=O)(=O)N2CCOCC2)c1	0.1	-5%	.	-14	9
CC(=O)O[C@]1(c2ccccc2)CCN(C)[C@H]2CCCC[C@@H]21	-0.4	-5%	8	5	3
COc1ccc(OC)c(-c2nc(C)sc2CC(=O)O)c1	-0.1	-4%	30	1	4
O=C(NCCCn1ccnc1)/C(=C\c1cccnc1)NC(=O)c1ccccc1Br	-1.8	3%	-26	3	-6
CNc1nc(C)c([N+](=O)[O-])c(Nc2ccc(OC)cc2)n1	-1.0	.	.	-2	.
O=C(CSc1nncn1-c1cccnc1)N(c1ccccc1)c1ccccc1	2.1	3%	.	3	0
Cc1nn(C(C)C(=O)N2CCc3ccccc32)c(C)c1[N+](=O)[O-] (stereo not drawn)	-1.0	-3%	-42	-3	8
NNC(=O)C(Cc1ccc(O)cc1)N1Cc2ccccc2C1=O (stereo not drawn)	-0.3	.	.	-5	.
CCC1Oc2ccc(C)cc2N(CC(=O)N(Cc2ccncc2)Cc2ccco2)C1=O (stereo not drawn)	0.1	-6%	-36	-1	-9
COc1ccc(-c2cc(C(=O)Nc3c(C)n(C)n(-c4ccccc4)c3=O)c3ccccc3n2)cc1	-0.2	.	.	2	.
CSc1ccccc1NC(=O)CN(c1ccccc1Br)S(C)(=O)=O	-2.2	-1%	-13	1	3
COc1ccc(NC(=S)N/N=C/c2cccn2Cc2ccc(F)cc2Cl)cc1	-5.7	1%	.	-2	-2

7 compounds out of the list, ordered by molar mass, descending:
SMILES	RecA splice inh	Mtb H37Rv	YopH PTP inh	Mtb bLac sens	Arbovirus inh	others
COc1ccc(-c2cc(C(=O)Nc3c(C)n(C)n(-c4ccccc4)c3=O)c3ccccc3n2)cc1	-0.2	.	.	2	.
O=C(NCCCn1ccnc1)/C(=C\c1cccnc1)NC(=O)c1ccccc1Br	-1.8	3%	-26	3	-6
Cc1nc(C(F)(F)F)c(C(=O)NC(=O)Nc2ccc(OC(F)(F)F)cc2)s1	5.6	58%	-9	11	11
C=CCNC(=S)Nc1ccc(OC)c(S(=O)(=O)N2CCOCC2)c1	0.1	-5%	.	-14	9
COC(=O)c1ccc(NC(=O)C23CCC(C)(C(=O)O2)C3(C)C)cc1 (stereo not drawn)	-1.6	-10%	-9	2	1
NNC(=O)C(Cc1ccc(O)cc1)N1Cc2ccccc2C1=O (stereo not drawn)	-0.3	.	.	-5	.
COc1ccc(OC)c(-c2nc(C)sc2CC(=O)O)c1	-0.1	-4%	30	1	4

This is a subset, so the mix of outcomes need not match the whole.
